Compound activity as filed in PubChem BioAssay.
RanGTP-Imp inh: disruptors of Ran-importin-beta complex formation – biochemical, FRET, CFP-Ran, YFP-importin-beta, homogeneous, primary screen; cell-free CFP-Ran/YFP-importin-beta FRET ratio; inhibition, % (no concentration beside the values); hit rate 1.1% among 300,000;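 active = most replicates above 15%; inconclusive = exactly half above 15%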;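 note: 0% = DMSO wells and 100% = Ran loaded with GDP instead of GTP; wells of about 40 µL received 100 nL stock; the first replicate is given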
Beta2AR agonist: human beta-2 adrenergic receptor agonism by FAP; P07550; Am2.2-beta2AR cells, FAP receptor internalization, flow cytometry; reference of the scale not given here; response, % (concentration not given with the values); hit rate 0.43% among 340,000; AID 504454;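 active = response above a set limit, near 3 SD of response in nonfluorescent compounds, cut at about 42% in these data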;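 note: stock transfer was 100 nL into about 11 µL; a reference agonist was the positive control; negative values mostly stem from fluorescent compounds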
Target sequence (P07550 whole entry, looked up): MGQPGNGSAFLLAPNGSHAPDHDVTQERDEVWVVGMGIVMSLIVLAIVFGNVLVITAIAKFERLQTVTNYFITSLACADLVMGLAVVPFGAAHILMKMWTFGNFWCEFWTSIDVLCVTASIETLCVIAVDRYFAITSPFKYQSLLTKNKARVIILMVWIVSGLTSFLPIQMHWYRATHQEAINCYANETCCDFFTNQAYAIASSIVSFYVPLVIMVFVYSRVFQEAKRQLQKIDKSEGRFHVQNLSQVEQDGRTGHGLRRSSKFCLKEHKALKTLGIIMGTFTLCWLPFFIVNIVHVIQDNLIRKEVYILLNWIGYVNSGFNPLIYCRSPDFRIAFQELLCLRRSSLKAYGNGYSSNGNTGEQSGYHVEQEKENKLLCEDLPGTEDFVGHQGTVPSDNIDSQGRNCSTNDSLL
HNF4A DNA FP: change in binding of human HNF4 alpha to DNA; P41235; HNF4a-FITC DNA binding, fluorescence polarization, 1 h; activity change, % at 10 µM; hit rate 0.3% among 360,000; in the data active = activity change above about 30%, passing the limit was not always enough;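 note: controls were the assay level and a saturating level of protein; the project sought stronger binding though the title names inhibitors; some compounds called inactive have numbers as strong as hits; positive values seem to mean higher polarization but the record does not say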
ALR inh: human ALR oxidase inhibition via reduced H2O2; inhibition, % (test concentration not listed); hit rate 3.8% among 290,000; P55789; purified ALR, DTT oxidation, H2O2 HRP-luminol luminescence; AID 485317;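 active = mean and each replicate at 75% or more; inconclusive = only one of the two met; inactive = neither met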;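 note: stock transfer was 7.5 nL into about 7.5 µL; 0% = neutral wells and 100% = wells with inactivated enzyme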
Target sequence (P55789 whole entry, looked up): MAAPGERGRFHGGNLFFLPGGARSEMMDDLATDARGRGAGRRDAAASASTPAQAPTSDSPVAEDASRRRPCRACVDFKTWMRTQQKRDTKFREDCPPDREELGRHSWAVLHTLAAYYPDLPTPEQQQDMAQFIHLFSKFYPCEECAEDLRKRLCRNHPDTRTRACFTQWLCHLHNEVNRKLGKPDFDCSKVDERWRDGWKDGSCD
LANA-H2B inh: blocks KSHV LANA binding to histone H2A/H2B; hit rate 0.6% among 320,000; Q9QR71; cell-free LANA-H2A/H2B peptide, fluorescence polarization; inhibition, % (no concentration beside the values); in the data active = inhibition mostly above about 10%, no sharp cut-off; inactive = mostly below about 6.7%;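 note: stock transfer was 7.5 nL into about 10 µL; 0% = median of vehicle wells and 100% = median of positive control wells; one replicate is shown; the record names a cut of 25% in any replicate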
Vif A3G: inhibitors of Vif binding to APOBEC3G peptide, primary screen, biochemical, TR-FRET, GST-Vif 1-94, biotin-A3G peptide, dose response retest (AID 1117319) | TR-FRET GST-Vif / biotin-A3G peptide binding; higher % means a stronger effect; test concentration not given here; strong numbers were not always called active | one-dose inhibition, %; IC50 in µM for titrated hits | hit rate 0.57% among 260,000;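 active = above the screen mean plus three standard deviations and confirmed in dose response; inconclusive = results disagree or hit not tested in dose response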;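 note: Vif residues 1-94 fused to GST binding biotinylated APOBEC3G peptide 110-148; 0% = full assay without inhibitor and 100% = GST in place of GST-Vif; retest series ran down from 100 µM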
Calb FLC: C. albicans growth modulation with fluconazole; AID 1979; hit rate 0.57% among 300,000; growth inhibition, % (no concentration beside the values); C. albicans CaCi-2 (fluconazole-resistant clinical isolate) + fluconazole, Alamar Blue growth, 48 h;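 active = most replicates above 75%; inconclusive = exactly half above 75%; inactive = most below 75%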;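 note: all wells also contain fluconazole at 8 µg/ml as a sub-toxic cotreatment; 0% = median of DMSO wells and 100% = median of geldanamycin control wells; wells of about 8 µL received 7.5 nL stock; the first replicate is given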
The depositor's hits bear a star; ? = inconclusive; . = no result given; & = joins results of further samples.

Results follow in this order: Beta2AR agonist	RanGTP-Imp inh	ALR inh	Calb FLC	Vif A3G	LANA-H2B inh	HNF4A DNA FP
> COc1ccc(-n2ncc3c(=O)n(CC(=O)N(C(C)C)C(C)C)cnc32)cc1
→ -6	-3.5	0	-8	1%	-1.2	0.1
> Cc1cc([N+](=O)[O-])nn1Cc1ccccc1F
→ 1	0.9	13	27	9%	-4.3	-1.4
> Fc1ccccc1NC(=S)NCCc1cccc(Cl)c1
→ 1	.	3	-25	.	-0.9	-2.9
> Cc1ccc(C(=O)OCC(=O)Nc2ccc3c(c2)OCCO3)cc1C
→ -4	.	.	.	-5%	.	0.5
> CCCOc1ccc2c(=O)c(-c3cc(C(=O)OC)oc3C)c(C)oc2c1
→ 3	-1.0	-1	-8	1%	-8.4	-0.1
> O=C(Nc1ccc(N2CCOCC2)cc1)c1cccc(S(=O)(=O)N2CCCCC2)c1
→ 0	-4.4	.	-1	2%&-5%	.	0.6
> COc1ccc2oc(=Nc3ccc(C(=O)O)cc3)c(C(=O)NCc3ccco3)cc2c1
→ 7	11	.	25	-2%	-3.9	2.4
> O=C1C2C3C=CC(CC3)C2C(=O)N1/N=C/c1ccco1 (stereo not given)
→ -1	0.2	4	4	-8%	0.5	1.3
> CCCCn1c(CCC(=O)O)nc2cc(S(=O)(=O)N3CCCC3)ccc21
→ 1	.	16	.	0%	-2.7	1.3
> CC(NC(=S)NC1CCCCC1)C(c1cccs1)N1CCOCC1 (stereo not given)
→ -4	1.6	0	-4	-1%	4.0	0.5
> O=C(Nc1ccc(S(=O)(=O)N2CCCCC2)cc1)C1CCCO1 (stereo not given)
→ 0	-1.0	2	-5	.	-2.0	-0.3
> CCNC(=O)C(=O)Nc1cc2c3c(c1)CCN3C(=O)CC2
→ 6	1.7	-5	17	.	-2.1	1.3
> CC(=O)Nc1ccc(/C=N/NC(=O)c2cc3cc(C)ccc3nc2C)cc1
→ 2	-1.4	-3	15	-1%	-4.8	-2.9
> NCCCC[C@@H](C(=O)N1CCNCC1)n1cc(CCC(=O)O)nn1
→ 0	2.8	-30	-1	-1%	-0.6	-1.7
> CCO[C@@H]1OC(C(=O)Nc2ccccc2)=C[C@H](C2CC2)[C@H]1CCCO
→ -3	11	-11	19	-1%	0.8	-0.5
> CCCCC(NC(=O)c1ccc(Cl)cc1)C(=O)O (stereo not given)
→ 2	4.8	-4	-15	2%	-1.0	-0.4
> O=C(COC(=O)c1n[nH]c2ccccc12)Nc1ccccc1Br
→ 11	.	.	.	-3%	-3.4	9.0
> O=C(c1ccccn1)N1CCCC(N2CCN(c3ccccc3)CC2)C1 (stereo not given)
→ 3	5.6	69	7	.	0.3	-4.1
> CCN(C(=O)COC(=O)c1ccc(=O)n(Cc2ccccc2)n1)C1CCCCC1
→ 1	.	.	.	-22%	3.5	-0.6
> COc1ccc(NC(=O)c2cccs2)cc1
→ -14	?	0	3	5%	-6.4	2.1
> CC(=O)CC1(C)OC(N)=C(C#N)C1(C#N)C#N (stereo not given)
→ 0	-1.8	29	1	16%	3.8	-0.8
> Cc1ccc(O)c(NC(=O)CN(C)S(=O)(=O)c2ccc(Cl)cc2)c1
→ 11	-2.0	3	2	6%	1.3	0.6
> COc1cc(OC)c2c(-c3ccccc3)cc(=O)oc2c1C(CC(=O)N1CCCC1)c1ccc2c(c1)OCO2 (stereo not given)
→ 0	4.6	.	2	.	0.4	-17
> COc1ccccc1Nc1ncnc2sccc12
→ 9	?	-1	10	2%	0.5	3.4
> Cc1ccc2c(c1)-c1c(ssc1=S)C(C)(C)N2C(=O)CN1C(=O)c2ccccc2C1=O
→ 3	4.1	-3	-6	-1%	-1.1	3.3
> CCN(CC)CCc1nc(-c2ccccc2)no1
→ 3	.	-16	.	.	-0.3	-0.1
> CCN(Cc1ccccc1)S(=O)(=O)c1cc(C(=O)OC)n(C)c1
→ -7	0.0	-4	5	6%	9.2	5.5
> Cc1cc(NC(=O)CSc2nnc(C3COc4ccccc4O3)o2)no1 (stereo not given)
→ -8	2.4	-8	12	11%	2.5	1.1
> O=C(COc1ccccc1)NC1CCCc2ccccc21 (stereo not given)
→ -1	-1.5	-5	-32	-1%	-2.7	2.5
> O=C1CC(C(=O)N2CCN(c3ccccc3)CC2)CN1Cc1ccccc1 (stereo not given)
→ -8	.	49	.	.	-4.0	-1.4

Part of the list above in another layout.
SMILES	Beta2AR agonist	RanGTP-Imp inh	ALR inh	Calb FLC	Vif A3G	LANA-H2B inh	HNF4A DNA FP
O=C(c1ccccn1)N1CCCC(N2CCN(c3ccccc3)CC2)C1 (stereo not given)	3	5.6	69	7	.	0.3	-4.1
CCN(C(=O)COC(=O)c1ccc(=O)n(Cc2ccccc2)n1)C1CCCCC1	1	.	.	.	-22%	3.5	-0.6

Going on with the list.
Results follow in this order: Beta2AR agonist	RanGTP-Imp inh	ALR inh	Calb FLC	Vif A3G	LANA-H2B inh	HNF4A DNA FP
> O=[N+]([O-])c1cccc(NC(=S)Nc2nc(-c3ccc(Cl)cc3Cl)cs2)c1
→ .	0.8	-3	-2	.	-2.7	.
> Cc1cnc(C(=O)OCC(=O)Nc2ccccc2-c2ccccc2)cn1
→ -1	.	0	.	-6%	-0.7	1.8
> Cc1ccc(S(=O)(=O)N2CCN3CCCC3C2)cc1 (stereo not given)
→ -1	-2.4	3	-1	.	-2.8	2.5
> O=C(NCCSCc1c(F)cccc1Cl)c1ccc(CN2CCOCC2)cc1
→ -1	?	4	-6	-3%	4.4	0.7
> CCc1ccc(OCc2nnc(SCC(=O)Nc3cccc(C(=O)N4CCOCC4)c3)o2)cc1
→ -3	-1.7	-5	12	-3%	3.8	3.6
> Cc1ccc2nc(SCC(=O)NCCCN3CCCC3=O)[nH]c2c1
→ -2	.	.	.	-1%	-3.3	-1.1
> Cc1ccccc1NC(=S)/C(=C(\[O-])c1cc(C)n(Cc2ccccc2Cl)c1C)[n+]1ccccc1
→ 4	-2.3	-15	-5	?	1.4	9.8
> Cc1sc2ncnc(NCC3COc4ccccc4O3)c2c1C (stereo not given)
→ -2	-4.6	-18	-1	13%	-4.8	-1.1
> c1ccc(CSc2nnc(-c3ccco3)n2Cc2ccco2)cc1
→ -1	0.8	41	24	5%	-5.7	0.5
> Cc1sc(NC(=O)/C=C/c2ccco2)c(C(=O)OC(C)C)c1C
→ -8	1.0	-2	-3	.	1.9	-0.3
> COc1cccc(NC(=S)NC2CC3CCCC(C2)N3C2CCCC2)c1 (stereo not given)
→ 10	?	-26	-9	-13%	-1.3	2.0
> Cc1cc(C)nc(SCc2nnc(SCC(=O)Nc3nc(-c4ccccc4)cs3)n2-c2ccccc2)n1
→ -29	7.8	-3	-16	-2%	5.1	0.9
> CCOc1nc(NCCN2CCOCC2)nc(NC(C)C)n1
→ 0	-1.4	-3	4	-7%	-2.1	-0.2
> O=C(COc1cccc(F)c1)NNC(=O)Cc1ccc(Br)cc1
→ -2	.	.	.	.	0.0	4.2
> O=C(NC1CCCCCC1)C1CCN(c2nc3ccccc3o2)CC1
→ -6	1.5	-13	-25	13%	4.8	-0.1
> Cc1cc(Cl)ccc1NNC(=O)c1c(C)noc1C
→ -3	-2.6	17	82*	2%	0.8	-0.9
> CN(C)CCNC(=O)CN1C(=O)COc2ccc(C(C)(C)C)cc21
→ 2	-1.2	0	7	-1%	0.2	-6.3
> O=C(C1=C(O)C(=O)N(CC2CCCO2)C1c1ccccc1[N+](=O)[O-])c1ccco1 (stereo not given)
→ -2	-3.8	17	0	.	3.1	-5.5
> CSc1cccc(NC(=O)/C=C/c2ccc(Cl)cc2)c1
→ -5	-2.9	-2	-13	0%	1.2	-1.6
> Cc1oc(/C=N/NC(=O)CC2(C)OCCO2)cc1Br
→ -2	-1.6	2	-2	3%	-6.3	2.1
> Cc1cc(C)nc(NC(=O)c2cc(-c3ccc4c(c3)OCO4)nc3ccccc23)c1
→ 9	.	-6	.	.	2.7	6.5
> Cn1cc(Br)c(C(=O)N2CCc3ccccc32)n1
→ 1	0.5	-3	-9	?	0.1	-1.0
> O=c1c2cnn(-c3ccccc3)c2ncn1CCc1ccccc1
→ 3	-0.5	-20	-1	.	0.0	-3.0
> COc1cccc(NC(=S)N(CCc2c(C)[nH]c3ccc(C)cc23)Cc2cccs2)c1
→ 7	0.0	.	4	8%	7.1	-2.8
> O=C(NC1CCCc2ccccc21)c1c(F)cccc1Cl (stereo not given)
→ 15	0.8	-1	-7	.	-5.9	3.7
> O=[N+]([O-])c1cccc2c(N3CCCC3)ccnc12
→ -9	-1.2	-47	11	0%	0.5	-3.2
> Cn1c(O)c(C2=c3ccccc3=NC2=O)[nH]c1=S
→ -10	2.0	0	7	9%	0.2	6.9
> Cc1ccc(C(C)C)c(OCC(=O)N/N=C/C2CCCCC2)c1
→ 4	1.4	12	44	.	1.7	-1.9
> Cc1ccc(/C=N/NC(=O)Cn2nccc2C)o1
→ 6	4.2	-21	?	29%	-1.2	-6.0
> Cc1nc2ccccn2c1C(=O)NC1CCCCC1
→ -3	-2.7	-6	-4	5%	0.8	-0.5
> O=C1CCc2cc(S(=O)(=O)Nc3ccccc3)cc3c2N1CC3
→ 5	7.1	-1	11	8%	-7.2	-2.1
> CS(=O)(=O)C1=NSC2=NC(=O)/C(=C\c3cccn3-c3ccc(Cl)cc3)C(=N)N21
→ -8	-28	5	7	.	48*	7.8
> CCCCCCNC(=O)CC(NS(=O)(=O)c1ccc(NC(C)=O)cc1)C(C)C (stereo not given)
→ 3	-1.9	-4	-10	32%	-11	-4.4
> OCc1ccccc1NC(=S)Nc1cccnc1
→ -5	-0.3	28	-8	-2%	4.0	-1.1
> CCCn1c(=O)n(C)c(=O)c2c(SCC(=O)Nc3cc(C)on3)nc(C(C)(C)C)nc21
→ 16	.	-7	.	-1%	-5.7	3.6
> O=C(O)c1cccc(NC(=S)N/N=C/c2cccnc2)c1
→ 4	8.2	25	-25	22%	1.2	0.7
> CC1(C(=O)Nc2ccc3c(c2)OCCO3)CC1(Cl)Cl (stereo not given)
→ 0	-1.9	0	-4	-4%	3.9	0.4
> Cc1c(C#N)c2ncn(Cc3ccccn3)c(=O)c2n1-c1ccccc1
→ -6	-2.5	-1	-1	6%	7.8	3.6
> CCC(=O)NC(=S)Nc1ccccc1C(F)(F)F
→ -2	6.3	68	2	-4%	3.9	-0.4
> CCc1ccc(CNc2ccc3c(c2)ncn3C(C)(C)C)cc1
→ 11	18*	75	1	.	-3.2	-0.2

Profiles, looked up by structure. Order of values: Beta2AR agonist | RanGTP-Imp inh | ALR inh | Calb FLC | Vif A3G | LANA-H2B inh | HNF4A DNA FP
`COc1ccc(NC(=O)c2cccs2)cc1` reads -14 | ? | 0 | 3 | 5% | -6.4 | 2.1
`OCc1ccccc1NC(=S)Nc1cccnc1` reads -5 | -0.3 | 28 | -8 | -2% | 4.0 | -1.1
